NOMO-1 viab – STK33 inhibitor candidate reducing NOMO-1 cell viability. NOMO-1 AML viability, CellTiter-Glo luminescence, 72 h. inhibition, % (no concentration beside the values). 37,000 compounds, 7.5% hits. AID 2330;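 active = most replicates above 80%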;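 also: wells of about 30 µL received 25 nL stock; 0% = median of vehicle wells and 100% = reference inhibitor level; the first replicate is given; inactives centre near 10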
* = called active by the depositor. A portion of the library (hit frequency here may not be typical).

SMILES	NOMO-1 viab
CC1(C)CC[C@]2(C(=O)O[C@@H]3OC[C@H](O[C@@H]4OC[C@H](O)[C@H](O)[C@H]4O)[C@H](O)[C@H]3O)CC[C@]3(C)C(=CCC4[C@@]5(C)C[C@H](O)[C@H](O[C@@H]6O[C@H](C(=O)O)[C@@H](O)[C@H](O[C@@H]7OC[C@H](O)[C@H](O)[C@H]7O)[C@H]6O)[C@@](C)(CO)C5CC[C@]43C)[C@@H]2C1 (some centres undefined)	-7
CCOc1cc(S(=O)(=O)NCc2ccco2)ccc1F	19
COc1ccc(S(=O)(=O)Nc2cccc3c2O[C@H](CN(C)Cc2ccc(Oc4ccccc4)cc2)[C@@H](C)CN([C@@H](C)CO)C3=O)cc1	23
C[C@@H]1CN([C@H](C)CO)C(=O)c2cccc(NS(=O)(=O)c3ccc(F)cc3)c2O[C@@H]1CN(C)C(=O)Nc1ccc(F)cc1	13
C[C@@H]1CN([C@H](C)CO)C(=O)c2cc(NC(=O)Cn3cnnn3)ccc2O[C@H]1CN(C)Cc1ccc(Oc2ccccc2)cc1	12
C[C@@H]1CN([C@@H](C)CO)C(=O)c2cccc(NC(=O)Nc3ccc(C(F)(F)F)cc3)c2O[C@H]1CN(C)Cc1ccccc1	103*
Cc1noc(C)c1NC(=O)Nc1ccc2c(c1)CC(=O)N([C@@H](C)CO)C[C@@H](C)[C@@H](CN(C)Cc1ccc(Cl)c(Cl)c1)O2	58
C[C@@H]1CN([C@H](C)CO)C(=O)Cc2cc(NC(=O)C3CCCCC3)ccc2O[C@@H]1CN(C)S(=O)(=O)c1ccccc1	12
COc1ccc(NC(=O)N(C)C[C@@H]2Oc3c(NC(=O)C4CC4)cccc3C(=O)N([C@@H](C)CO)C[C@@H]2C)cc1	15
COc1ccc(CN(C)C[C@@H]2OCCCC[C@@H](C)Oc3ccc(NC(=O)Cc4ccccc4)cc3C(=O)N([C@H](C)CO)C[C@@H]2C)cc1	14
CC(C)NC(=O)N(C)C[C@H]1Oc2ccc(NC(=O)Nc3cccc4ccccc34)cc2CC(=O)N([C@@H](C)CO)C[C@@H]1C	-19
Cc1cc(C(=O)Nc2cccc3c2O[C@H](CN(C)C(=O)Nc2ccc(C(F)(F)F)cc2)[C@@H](C)CN([C@H](C)CO)C3=O)n(C)n1	1
C[C@@H]1CN([C@H](C)CO)C(=O)Cc2cc(NC(=O)CCN3CCOCC3)ccc2O[C@H]1CN(C)S(=O)(=O)c1ccc(Cl)cc1	-4
COc1cc(C2NC(=O)NC(c3ccccc3)=C2C(=O)c2ccccc2)cc(I)c1OCC(=O)O (centres undefined)	16
COc1cc(NC(=S)NC(=O)C(C)Oc2ccc(Cl)cc2Cl)c(OC)cc1Cl (centres undefined)	14
CC(C)(C)C1CCc2c(sc3ncn(CC(=O)NCc4ccco4)c(=O)c23)C1 (centres undefined)	25
Cc1cccc(C)c1OCC(=O)Nc1ccc([N+](=O)[O-])cc1O	-10
C[C@H]1CN([C@@H](C)CO)C(=O)c2cc(NC(=O)Nc3cccc4ccccc34)ccc2O[C@H]1CN(C)S(=O)(=O)c1ccccc1	18
C[C@H]1CN([C@@H](C)CO)C(=O)Cc2cc(NC(=O)CCN3CCOCC3)ccc2O[C@H]1CN(C)Cc1ccncc1	8
C[C@@H]1CCCCO[C@@H](CN(C)S(=O)(=O)c2cn(C)cn2)[C@@H](C)CN([C@H](C)CO)C(=O)c2cc(NS(=O)(=O)c3ccc(Cl)cc3)ccc2O1	27
C[C@@H]1CN([C@H](C)CO)C(=O)Cc2cc(NS(=O)(=O)c3ccc(F)cc3)ccc2O[C@H]1CN(C)Cc1ccc(C(F)(F)F)cc1	127*
COc1ccc(Cl)cc1N(CC(=O)Nc1cc(Cl)ccc1C)S(C)(=O)=O	-11
COc1ccc(OC)c(NC(=O)Cn2cc(C(=O)C3CC3)c3ccccc32)c1	-2
C[C@@H]1CN([C@@H](C)CO)C(=O)c2cccc(NC(=O)Nc3ccccc3)c2O[C@@H]1CN(C)S(=O)(=O)c1ccccc1	25
Cc1ccc(S(=O)(=O)Nc2ccc3c(c2)C(=O)N([C@@H](C)CO)C[C@H](C)[C@@H](CN(C)Cc2ccc(C(=O)Nc4ccccc4N)cc2)O3)cc1	65
C[C@H]1CN([C@@H](C)CO)C(=O)c2cc(NS(=O)(=O)c3cn(C)cn3)ccc2O[C@H]1CN(C)Cc1ccc(Cl)c(Cl)c1	17
COc1ccc(NC(=O)COc2cc(C)c(Br)c(C)c2)c([N+](=O)[O-])c1	-10
Cc1noc(C)c1NC(=O)N(C)C[C@@H]1Oc2c(NS(=O)(=O)c3cccs3)cccc2C(=O)N([C@H](C)CO)C[C@@H]1C	-13
C[C@@H]1CN([C@H](C)CO)C(=O)Cc2cc(NC(=O)NC3CCCCC3)ccc2O[C@H]1CN(C)S(=O)(=O)c1ccccc1	4
Nc1no[n+]([O-])c1-c1ccccc1	30

As entered above.
NOMO-1 viab, `COc1ccc(NC(=O)COc2cc(C)c(Br)c(C)c2)c([N+](=O)[O-])c1` = -10
NOMO-1 viab, `C[C@@H]1CN([C@H](C)CO)C(=O)Cc2cc(NS(=O)(=O)c3ccc(F)cc3)ccc2O[C@H]1CN(C)Cc1ccc(C(F)(F)F)cc1` = 127*
NOMO-1 viab, `COc1ccc(Cl)cc1N(CC(=O)Nc1cc(Cl)ccc1C)S(C)(=O)=O` = -11
NOMO-1 viab, `CC(C)(C)C1CCc2c(sc3ncn(CC(=O)NCc4ccco4)c(=O)c23)C1` (centres undefined) = 25
NOMO-1 viab, `C[C@@H]1CN([C@@H](C)CO)C(=O)c2cccc(NC(=O)Nc3ccccc3)c2O[C@@H]1CN(C)S(=O)(=O)c1ccccc1` = 25

New compounds follow:
SMILES	NOMO-1 viab
COc1ccc(NC(=S)NCCCC2C=NNC2=O)cc1 (centres undefined)	0
C[C@@H]1CCCCO[C@@H](CN(C)Cc2ccc(C(F)(F)F)cc2)[C@@H](C)CN([C@H](C)CO)C(=O)c2cc(NC(=O)Nc3cccc4ccccc34)ccc2O1	24
C[C@@H]1CN([C@@H](C)CO)C(=O)Cc2cc(NC(=O)Nc3ccccc3)ccc2O[C@@H]1CN(C)C(=O)Nc1ccccc1	24
COc1ccc(S(=O)(=O)N(C)CC(=O)Nc2ccccc2)cc1Cl	8
C[C@@H]1O[C@@H](OC[C@H]2O[C@@H](OCCc3ccc(O)c(O)c3)[C@H](O)[C@@H](O)[C@@H]2OC(=O)/C=C/c2ccc(O)c(O)c2)[C@H](O)[C@H](O)[C@H]1O	21
Cc1ccc(-c2noc(CSc3nnc(-c4cccs4)n3-c3ccccc3)n2)cc1	31
Cn1c(SCc2nc3ccccc3c(=O)[nH]2)nnc1-c1cc2ccccc2o1	7
COc1cc2c(c3oc(-c4ccccc4)cc(=O)c13)C=CC(C)(C)O2	35
COc1ccc(NC(=O)Nc2cccc3c2O[C@@H](CN(C)CC2CC2)[C@H](C)CN([C@H](C)CO)C3=O)cc1	22
C[C@@H]1CN([C@@H](C)CO)C(=O)c2cc(NC(=O)Nc3ccccc3)ccc2O[C@H]1CN(C)Cc1ccccc1	-13
C[C@H]1CN([C@@H](C)CO)C(=O)c2cc(NC(=O)CCC(F)(F)F)ccc2O[C@@H]1CN(C)C(=O)Nc1ccc2c(c1)OCO2	-6
O=C(NCc1ccccn1)Nc1ccccc1Cl	13
C[C@H](CO)N1C[C@H](C)[C@@H](CN(C)Cc2ccc(-c3ccccc3)cc2)Oc2ccc(NC(=O)Nc3ccc4c(c3)OCO4)cc2C1=O	120*
C[C@H]1CN([C@@H](C)CO)C(=O)c2cccc(NC(=O)CCCCCC(=O)Nc3ccccc3N)c2O[C@@H]1CN(C)CC1CCCCC1	139*
COc1ccccc1NC(=O)C(CCS(C)(=O)=O)N1C(=O)c2ccc(Br)cc2C1=O (centres undefined)	-20
COc1ccc(NC(=O)Nc2cccc3c2O[C@H](CN(C)S(=O)(=O)c2cccs2)[C@H](C)CN([C@@H](C)CO)C3=O)cc1	35
C[C@@H]1CN([C@H](C)CO)C(=O)c2cccc(NC(=O)Nc3cccc4ccccc34)c2O[C@@H]1CN(C)Cc1ccc(Cl)c(Cl)c1	62
O=C(CSc1n[nH]c(-c2ccc(Cl)cc2)n1)Nc1cccc(Br)c1	6
CNC[C@@H]1Oc2ccc(NC(=O)Nc3c(C)noc3C)cc2C(=O)N([C@@H](C)CO)C[C@H]1C	-8
C[C@@H]1CN([C@H](C)CO)C(=O)Cc2cc(NC(=O)Cc3ccccc3)ccc2O[C@H]1CN(C)S(=O)(=O)c1cccs1	4
C[C@H]1CN([C@@H](C)CO)C(=O)c2cc(NS(=O)(=O)c3ccccc3)ccc2O[C@H]1CN(C)C(=O)Nc1ccc2c(c1)OCO2	6
C[C@H]1CN([C@@H](C)CO)C(=O)c2cccc(NC(=O)NC3CCCCC3)c2O[C@@H]1CN(C)C(=O)Nc1ccccc1	-8
CC(C)NC(=O)N(C)C[C@@H]1Oc2ccc(NS(=O)(=O)c3ccc(Cl)cc3)cc2CC(=O)N([C@H](C)CO)C[C@@H]1C	-1
CC(C)NC(=O)N(C)C[C@H]1Oc2c(NS(=O)(=O)c3ccc(Cl)cc3)cccc2C(=O)N([C@@H](C)CO)C[C@@H]1C	3
C[C@H]1CN([C@@H](C)CO)C(=O)c2cccc(NS(=O)(=O)c3cn(C)cn3)c2O[C@H]1CN(C)CC1CC1	17
COc1ccc(NC(=O)Nc2ccc3c(c2)C(=O)N([C@H](C)CO)C[C@@H](C)[C@H](CN(C)C(=O)NC(C)C)O3)cc1	-7
COC(=O)c1cn(CC(N)=O)c2ccccc12	-18
COc1ccc(CN(C)C[C@@H]2Oc3ccc(NC(=O)Nc4ccc5c(c4)OCO5)cc3CC(=O)N([C@H](C)CO)C[C@H]2C)cc1	9
Cc1sc2nc(SCC(=O)Nc3ccc4c(c3)OCCO4)n(-c3ccccc3)c(=O)c2c1C	5
Cc1cc(Br)c(NC(=O)CSc2ncn(-c3ccccc3)n2)cc1C	-21
CSc1ccccc1NC(=O)c1cc2n(n1)C(C(F)(F)F)C1CCc3ccccc3C1N2 (centres undefined)	72
COc1ccc(NC(=O)Nc2ccc3c(c2)CC(=O)N([C@H](C)CO)C[C@@H](C)[C@H](CN(C)C(=O)Nc2ccc4c(c2)OCO4)O3)cc1	44
C[C@@H]1CN([C@H](C)CO)C(=O)c2cccc(NS(C)(=O)=O)c2O[C@H]1CN(C)C(=O)NC1CCCCC1	4
O=C(Nc1ccc2c(c1)OCCO2)c1ccc(CNS(=O)(=O)c2cccc(C(F)(F)F)c2)cc1	15
C[C@@H]1CN([C@H](C)CO)C(=O)c2cc(NS(C)(=O)=O)ccc2O[C@H]1CN(C)Cc1ccncc1	6
C[C@H]1CN([C@@H](C)CO)C(=O)Cc2cc(NC(=O)Nc3cccc4ccccc34)ccc2O[C@@H]1CN(C)C(=O)Nc1cccc2ccccc12	24
COc1ccc(-c2coc3c(OC)c(OC)ccc3c2=O)cc1	19
CCn1c(SCC(=O)Nc2ccc(Br)c(Cl)c2)nnc1-c1ccccc1F	41
C[C@@H]1CN([C@@H](C)CO)C(=O)c2cc(NC(=O)Cc3ccccc3)ccc2O[C@H]1CN(C)S(=O)(=O)c1ccc(Cl)cc1	3
CC(C)NC(=O)Nc1ccc2c(c1)CC(=O)N([C@H](C)CO)C[C@@H](C)[C@@H](CN(C)Cc1ccc(Cl)c(Cl)c1)O2	43
CC1CCc2c(sc3ncn(CC(=O)Nc4c(C(C)C)cccc4C(C)C)c(=O)c23)C1 (centres undefined)	46
Cc1c(C(=O)N2CCc3ccccc32)oc2c1C(=O)CC(C)(C)C2	-13
Cc1sc2ncnc(SCC(=O)c3ccc4ccccc4c3)c2c1C	12
C[C@H]1CN([C@@H](C)CO)C(=O)c2cc(NC(=O)CCCN(C)C)ccc2O[C@@H]1CN(C)Cc1ccncc1	10
Cc1noc(C)c1NC(=O)Nc1ccc2c(c1)CC(=O)N([C@@H](C)CO)C[C@H](C)[C@H](CN(C)S(=O)(=O)c1cn(C)cn1)O2	-1
CCn1c(SCC(=O)Nc2ccc(C(=O)O)cc2)nnc1-c1ccc(C)cc1	8
COc1ccc(S(=O)(=O)N(C)C[C@@H]2OCCCC[C@@H](C)Oc3ccc(NS(=O)(=O)c4cccs4)cc3C(=O)N([C@H](C)CO)C[C@@H]2C)cc1	35
O=C(CSc1nnnn1-c1ccccc1)Nc1ccc(Br)c(Cl)c1	-8
C[C@@H]1CN([C@@H](C)CO)C(=O)c2cccc(NC(=O)Nc3ccccc3)c2O[C@H]1CN(C)CC1CCCCC1	93*
C[C@@H]1CN([C@@H](C)CO)C(=O)c2cc(NC(=O)Nc3ccc(F)cc3)ccc2O[C@H]1CN(C)C(=O)Nc1ccc2c(c1)OCO2	4
C[C@@H]1CN([C@@H](C)CO)C(=O)c2cc(NC(=O)c3ccncc3)ccc2O[C@@H]1CN(C)Cc1ccc(-c2ccccc2)cc1	21
Cc1ccc(Nc2cc(=O)[nH]n2C)cc1Cl	-13
COc1ccc(NC(=O)CSc2nc(C34CC5CC(CC(C5)C3)C4)ccc2C#N)cc1	10

For convenience, part of the list above.
SMILES	NOMO-1 viab
C[C@@H]1CN([C@@H](C)CO)C(=O)c2cccc(NC(=O)Nc3ccccc3)c2O[C@H]1CN(C)CC1CCCCC1	93*
C[C@@H]1CN([C@@H](C)CO)C(=O)c2cc(NC(=O)Nc3ccc(F)cc3)ccc2O[C@H]1CN(C)C(=O)Nc1ccc2c(c1)OCO2	4
C[C@@H]1CN([C@@H](C)CO)C(=O)c2cc(NC(=O)c3ccncc3)ccc2O[C@@H]1CN(C)Cc1ccc(-c2ccccc2)cc1	21
Cc1ccc(Nc2cc(=O)[nH]n2C)cc1Cl	-13
COc1ccc(NC(=O)CSc2nc(C34CC5CC(CC(C5)C3)C4)ccc2C#N)cc1	10
